# StopGo reporter – FMDV 2A StopGo reporter, luciferase signal; human cells with a luciferase reporter of 2A StopGo recoding; control for the full effect not named in the record; hit rate 1.2% among 410,000; Potency, µM (doses to about 57.9 µM), inactives show at the highest dose signal change, negative = less light; active = well fitted falling curve with a large enough effect; inconclusive = small, poorly fitted or top-dose-only effect; inactive = no such curve, though single readings can be large or run the other way; tested in HEK293T cells; note: % is set by controls: 0 for no effect and ±100 for the full control effect; nearly all actives have a fitted effect of over 45% in size; luciferase light after 4 h
# Cruzain noTriton – inhibitors of Trypanosoma cruzi cruzain without detergent. P25779. Potency, µM, for the others: max response, negative = inhibition, hits mostly inhibitors. purified cruzain, Z-FR-AMC fluorescence, no detergent. hit rate 2.3% among 200,000. AID 1476;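 note: plate controls were enzyme without inhibitor for no effect and buffer without enzyme for full effect; nearly all actives have a fitted effect of over 40% in size; top concentration of the series not given in the record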
# Target sequence (P25779 123-467 limits assumed): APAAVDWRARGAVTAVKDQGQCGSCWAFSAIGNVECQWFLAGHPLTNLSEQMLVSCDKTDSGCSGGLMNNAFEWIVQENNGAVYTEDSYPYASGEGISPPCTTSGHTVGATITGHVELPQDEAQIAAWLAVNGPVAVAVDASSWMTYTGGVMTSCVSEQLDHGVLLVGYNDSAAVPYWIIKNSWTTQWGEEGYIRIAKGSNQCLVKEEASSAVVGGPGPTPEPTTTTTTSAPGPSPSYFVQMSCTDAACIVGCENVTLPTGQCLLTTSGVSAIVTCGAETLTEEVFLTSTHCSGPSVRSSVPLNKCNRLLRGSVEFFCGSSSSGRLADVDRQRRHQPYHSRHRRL
#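 Detergent-free condition (0.00005% Triton X-100) in acetate buffer pH 5.5 with DTT. 1.5 nM enzyme and compound were pre-mixed 15 min, then 2 uM Z-FR-AMC substrate added; reaction progress from fluorescence change between first and third reads (60 s).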
# NS1 function inh – influenza NS1 inhibition; hit rate 0.4% among 270,000; AID 2326; Potency, µM (top dose mostly 46.1 µM), without a hit: top-dose activity, positive = more growth; S. cerevisiae slowed by influenza A NS1, growth recovery by OD600; active means well fitted rising curve with a large enough effect; inconclusive means small, poorly fitted or top-dose-only effect; inactive means no such curve, though single readings can be large or run the other way; note: nearly all actives have a fitted effect of over 50% in size
#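 S. cerevisiae expressing influenza A NS1, grown in glucose, washed, then diluted 1:100 into pH 6.0 -URA galactose medium with 23 nl compound. Growth recovery read as OD600; NS1-free strain serves as control.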
# Lassa entry inh – blocks Lassa virus binding to or entry into cells. Potency, µM (series often up to 37.9 µM), without a hit: top-dose activity change, negative = inhibition, hits mostly inhibitors. AID 540256. hit rate 1.2% among 300,000. Lassa virus pseudotype entry inhibition, cell reporter; control for the full effect not named in the record; active means well fitted inhibition curve with a large enough effect; inconclusive means small, poorly fitted or top-dose-only effect, or effect the other way; inactive means flat fitted curve, though single readings scatter; tested in HEK293 cells; note: % is set by controls: 0 for no effect and ±100 for the full control effect; nearly all actives have a fitted effect of over 50% in size; luciferase read-out
# SARS PLpro yeast – blocks SARS-CoV papain-like protease in a yeast assay | S. cerevisiae expressing SARS-CoV PLpro, growth rescue; control for the full effect not named in the record | Potency, µM (highest dose often 32.9 µM), inactives show at the top dose activity, positive = growth rescue | hit rate 0.19% among 330,000 | AID 485353; active means well fitted rising curve with a large enough effect; inconclusive means small, poorly fitted or top-dose-only effect; inactive means no such curve, though single readings can be large or run the other way; note: 0% is about no effect; nearly all actives have a fitted effect of over 55% in size; growth read by luminescence after 48 h
# Cruzain Triton – blocks cruzain activity in presence of Triton detergent | Potency, µM, inactives show max response, negative = inhibition, most hits filed as inhibitors | P25779 | purified cruzain, Z-FR-AMC fluorescence, 0.01% Triton | hit rate 0.43% among 200,000;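 note: plate controls were neutral wells for no effect and buffer without enzyme for full effect; nearly all actives have a fitted effect of over 40% in size; top concentration of the series not given in the record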
#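 Detergent-containing run (0.01% Triton X-100) in acetate buffer pH 5.5 with 5 mM DTT: enzyme at 1.5 nM final, 15 min compound preincubation at room temperature, then 2 uM Z-FR-AMC substrate. Activity taken as 60 s fluorescence increase at 360/450 nm.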
# RE007 growth inh – less growth of the S. pombe RE007 Vpr strain | S. pombe RE007 Vpr strain, BacTiter-Glo ATP luminescence, 24 h; control for the full effect not named in the record | Potency, µM (doses to about 92.2 µM), for the others: at the highest dose activity change, negative = less growth | hit rate 0.21% among 360,000; active = well fitted falling curve with a large enough effect; inconclusive = small, poorly fitted or top-dose-only effect; inactive = no such curve, though single readings can be large or run the other way;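 note: % is set by controls: 0 for no effect and ±100 for the full control effect; nearly all actives have a fitted effect of over 50% in size; the assay follows cell death caused by Vpr and the record does not say whether a fall means rescue or toxicity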
#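 Fission yeast strain RE007, carrying one chromosomally integrated HIV-1 vpr copy, was seeded at OD 0.01 in PMG+AL medium with 23 nL pinned compound. After 24 h at 30 °C and 99% humidity, viability was read by BacTiter-Glo luminescence.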
# MARV entry inh – Marburg virus entry inhibition; Marburg virus pseudotyped entry inhibition, cell reporter; control for the full effect not named in the record; about a third of the inactives were read at about 46 µM; Potency, µM (titrated, usually from 37.8 µM), inactives show top-dose activity change, negative = inhibition, hits mostly inhibitors; hit rate 1.8% among 300,000; AID 540276; active = well fitted inhibition curve with a large enough effect; inconclusive = small, poorly fitted or top-dose-only effect, or effect the other way; inactive = flat fitted curve, though single readings scatter; tested in HEK293 cells; about a fifth of its hits are not listed in these tables; note: % is set by controls: 0 for no effect and ±100 for the full control effect; luciferase read-out
# Starred values were filed as active, the others as inactive; ? = inconclusive; . = no result given; & = joins results of further samples; [ ] = another dose, or the depositor's remark. Unless noted, calls come from the whole dose curve; as a rule, active = well fitted curve in the direction sought with a large enough effect; inconclusive = small, poorly fitted or top-dose-only effect, or another doubt; inactive = no such curve, though single readings can be large; an effect the other way counts as inactive or inconclusive. Potency is the fitted concentration of half-maximal effect. An unsorted share of the library; overall some 4.5% were active at least once.
SMILES,StopGo reporter,Cruzain noTriton,NS1 function inh,Lassa entry inh,SARS PLpro yeast,Cruzain Triton,RE007 growth inh,MARV entry inh
Clc1ccc(C[n+]2csc3ccccc32)cc1,13%,-2%,4%,4%,-35%,-8.9%,3%,13%
COc1ccc(C2=NS(=O)(=O)N(C)C(C(=O)Nc3ccc(C(C)=O)cc3)=C2)cc1OC,?,.,1%,?,0%,.,12%,?
O=C(CCCN1C(=O)c2ccccc2C1=O)Nc1ccc2c(c1)OCCO2,26%,.,.,13%,-1%,.,-1%,-1%[46.1 µM]
CCOc1ccccc1N1CCN(C(=O)c2cc3cc(OC)ccc3[nH]2)CC1,-19%,.,10%,.,-3%,.,2%,.
CC1(C)Cc2c(C#N)c(NCc3ccco3)nc(-c3ccco3)c2CO1,-22%,-17%,-2%[9.22 µM],-20%,?,-7.5%,-4%,-8%
CSc1ccc(N2CCN(CCCNC(=O)Nc3ccccc3F)CC2)cc1,-22%,-7%,0%,-10%,19%,-7.8%,1%,11%
Cc1cccc(-c2nc(CS(=O)CC(=O)N3CCc4ccccc4C3)c(C)o2)c1 (centres undefined),-13%,11%,-13%,.,-6%,-5.5%,15%,3%
CC(C)Sc1nnc(CNC(=O)C23CC4CC(CC(C4)C2)C3)n1Cc1ccccc1,?,30%,-7%,-9%,10%,-1.1%,6%,21%
COc1ccc(N2C(=O)c3ccc(C(=O)OC(C)C)cc3C2=O)cc1,-13%,-6%,-4%,?,-17%,1.1%,-11%,20%
COc1ccccc1CNC1CCCc2ccccc21 (centres undefined),-2%,.,-3%,-2%[46.1 µM],?,.,-11%,?
COc1ccc(C2=NOC(C(=O)N3CCOCC3)C2)cc1OC (centres undefined),27%,3%,-17%,-2%,7%,3.4%,15%,?
CN(C)C(=O)c1cc(Cl)ccc1Sc1cc(Cl)ccc1Cl,?,4%,-3%,-3%,-8%,-9.3%,0%,-4%
Cc1ccc(-c2nnn(CC(=O)N(c3ccccc3F)C(C(=O)NC3CCCC3)c3ccco3)n2)o1 (centres undefined),19%,3%,-15%,-12%,1%,1.1%,8%,0%
COCCn1c(N)c(Sc2ccc(Cl)cc2)c(=O)[nH]c1=O,5%,.,-15%,-22%[46.1 µM],1%,.,-12%,-15%[46.1 µM]
O=C(Nc1cccc(C(F)(F)F)c1)c1csc(-c2ccncc2)n1,100µM*,.,5%,?,-3%,.,7%,?
CC(C)(C)c1ccc(CN2C(=O)CN=C(c3ccccc3)c3ccccc32)cc1,?,-28%,-5%,-9%,-5%,-8.0%,20%,?
COc1ccc(NC(=O)CCNC(=O)c2ccco2)c(OC)c1,7%,.,11%,1%[46.1 µM],1%,.,-12%,2%[46.1 µM]
CCN(CC)c1nc(-c2ccc(C(=O)NN)cc2)nc(-c2ccc(C(=O)NN)cc2)n1,-6%,.,?,14%[46.1 µM],1%,.,-7%,1%[46.1 µM]
CC(C)(C)OC(=O)N1CCC(c2c(C(=O)NC3CCN(Cc4ccccc4)CC3)cnn2-c2cccc(F)c2)CC1,-6%,-8%,.,2%[46.1 µM],.,-1.2%,.,.
O=c1oc(-c2ccccc2F)nc2scc(-c3ccccc3)c12,2%,.,3%,10%,-1%,.,13%,-2%[14.2 µM]
NC(=O)c1nsc(C(=O)N(CC(=O)NC2CCCCC2)Cc2ccc(F)cc2)c1N,-13%,.,-10%,-16%[46.1 µM],12%,.,-20%,9%[46.1 µM]
CCOC(=O)SC1=N/C(=C\c2ccc(N(C)C)cc2)C(=O)S1,11%,-13%,-6%,?,-10%,-6.8%,-13%,-1%
COc1ccc2[nH]c(=O)c(CNc3ccccc3OC)cc2c1,?,.,?,-20%,-1%,.,16%,-19%[46.1 µM]
O=C(CCn1cnc2onc(-c3ccc(F)cc3)c2c1=O)N1CCN(c2ccc(F)cc2)CC1,0%,?,.,-19%[46.1 µM],.,-6.8%,.,.
O=C(NCc1ccccc1Cl)C1CCN(S(=O)(=O)N2CCC3(CC2)OCCO3)CC1,.,13%,-7%,-2%,2%,-1.1%,0%,17%
CCCCC1=CC2=C(c3ccco3)C(=O)C(C)(OC(=O)c3ccc(OC)cc3)C(=O)C2=CN1CCc1ccccn1 (centres undefined),-25%,.,?,.,0%,.,-3%,-20%&-20%[14.2 µM]
CC(=O)N(c1c(C)n(C)n(-c2ccccc2)c1=O)C1(C(=O)NC2CCCC2)CCCCC1,10%,-3%,6%,?,-3%,1.0%,18%,-1%
COCCc1nc2ccc(C(=O)N3CCCC(CCCO)C3)cc2o1 (centres undefined),-9%,.,1%,.,1%,.,-1%,.
CCSc1nnc2c(n1)OC(C)(C)Nc1ccccc1-2,.,-10%,5%,?,-5%,0.7%,8%,12%
COc1ccc(-n2c(C)cc(/C=C/c3nc(O)c([N+](=O)[O-])c(=O)[nH]3)c2C)cc1,1%,.,.,-5%,0%,.,-3%,7%[46.1 µM]
CN(C)/C=C1\N=C(c2ccccc2)OC1=O,20%,.,.,12%[46.1 µM],-6%,.,-13%,11%[46.1 µM]
Cc1sc(-c2cccnc2)nc1OC(=O)C1CC1,11%,.,-1%,3%,3%,.,20%,-9%[46.1 µM]
CCc1cc2ccc(C)cc2nc1SCC(=O)Nc1cc(C)on1,-6%,.,1%,-13%,11%,.,0%,?
O=C(O)CN1C(=O)NC2(CCOc3ccccc32)C1=O (centres undefined),-23%,.,-44%,.,-4%,.,-9%,.
O=C(c1cnn2c(C(F)(F)F)cc(-c3cccs3)nc12)N1CCN(C(c2ccccc2)c2ccccc2)CC1,-7%,?,16µM*,?,2%,-4.8%,9%,13µM*
COc1ccc(OCCCN2CCc3ccccc3C2)cc1,1%,.,2%,4%[46.1 µM],8%,.,2%,-14%[46.1 µM]
CCOc1ccc(N(CC(=O)Nc2cccc(Br)c2)S(C)(=O)=O)cc1,0%,.,8%,.,9%,.,3%,.
CC1=Nc2ccccc2/C1=C/c1c(N)n2c(S(=O)(=O)C(C)C)nsc2nc1=O,-1%,.,.,2%,0%,.,-1%,3%[46.1 µM]
Cc1ccc2c(CN3CCN(C(=O)c4ccco4)CC3)cc(=O)oc2c1C,-13%,.,.,11%[46.1 µM],-3%,.,6%,?
CCCCCc1ccc(-c2cn(Cc3cccc(OC)c3)nn2)cc1,-25%,.,-6%,.,7%,.,-20%,.
O=[N+]([O-])c1ccc(O)c(Nc2ncnc3ccc(Br)cc23)c1,?,.,.,?,-1%,.,8%,?
Nc1cccc(-n2nncc2-c2ccc(Cl)cc2)c1,.,-7%,1%,.,-3%,-0.9%,.,1%
C#CCNC(=O)C1=C[C@@H](c2ccc(C#C)cc2)[C@H](CCCO)[C@@H](OCC)O1,-9%,.,-2%,.,0%,.,3%,.
Cc1ccccc1S(=O)(=O)Cc1ccc(C(=O)NCCN2CCCCC2C)o1 (centres undefined),-23%,5%,4%,0%,9%,-4.7%,-4%,8%
Cc1nn2c(-c3cccc(NC(=O)CSc4nc5ccccc5o4)c3)nnc2c2ccccc12,?,?,-36%,?,-7%,-3.7%,-1%,?
O=C(CC1N=C2c3ccccc3N=C(SCc3ccc(Cl)cc3)N2C1=O)NCCc1ccccc1 (centres undefined),-2%,-13%,.,?,.,-5.3%,.,.
O=P1(O)Cc2ccccc2-c2ccccc21,-8%,.,.,-3%,.,.,26%,23%
CCOC(=O)C1(Cc2cccc(Cl)c2)CCCN(C(=O)c2ccc(COC)s2)C1 (centres undefined),-6%,.,-18%,?,-5%,.,3%,-13%
CC(=O)Nc1ccc(OCCC[n+]2ccccc2)cc1,-5%,.,1%,.,0%,.,-11%,.
CCN1CCCC1CNC(=O)c1csc2c1CCCC2 (centres undefined),.,-5%,3%,-14%,5%,-3.2%,-18%,23µM*

# Other records:
SMILES,StopGo reporter,Cruzain noTriton,NS1 function inh,Lassa entry inh,SARS PLpro yeast,Cruzain Triton,RE007 growth inh,MARV entry inh
O=C(Nc1nnc(-c2cccs2)o1)c1cccc(Oc2ccccc2)c1,14%,-16%,-254%,.,-27%,-6.6%,-7%,.
COc1ccc(C2N3CC(C)(C)CN23)cc1 (centres undefined),.,0%,-2%,?,9%,-0.6%,.,6%
CNC(=O)/C(C#N)=C/c1ccc(-c2nc3ccccc3s2)o1,60%[activator],.,-1%,20%,-2%,.,-2%,?
CC1=C(C(=O)OCc2ccc(C)cc2)C(c2ccccc2C(F)(F)F)CC(=O)N1 (centres undefined),0%,-12%,.,?,.,-2.4%,.,3%[46.1 µM]
CCN(CC)CCCNC(=O)c1nn(-c2ccc(OC)cc2)c(=O)c2c1c1ccccc1n2C,-1%,-17%,.,-9%[46.1 µM],.,-1.5%,.,5%[46.1 µM]
COc1ccc(CC(=O)NC(C)c2nnc(SCC(=O)Nc3ccccc3F)n2C)cc1 (centres undefined),-10%,.,2%,0%,0%,.,6%,-2%
COc1ccc(Cl)cc1NC(=O)COC(=O)Cc1cc(OC)c(OC)c(OC)c1,-24%,.,.,-19%[46.1 µM],-8%,.,0%,-15%[46.1 µM]
COC(=O)c1cccc(OCC(O)Cn2cnc3cc(C)c(C)cc32)c1 (centres undefined),-5%,-10%,-16%,?,5%,-16%,-7%,15%
O=C(CCS(=O)(=O)c1ccccc1)N(Cc1cccnc1)c1nc2ccc(Cl)cc2s1,-14%,-1%,.,4%[46.1 µM],.,0.1%,.,.
CC1CN(C(=O)N2c3ccccc3Sc3ccccc32)C(C)CC1=O (centres undefined),?,?,-36%,13%,-18%,-5.4%,18%,-28%
O=C(CN1CCOCC1)Nc1cccc(Cl)c1Cl,-16%,-4%,-12%,5%,1%,2.4%,-8%,-3%
Cc1cc(C)cc(OC(=O)c2cc(-c3ccc4c(c3)OCCO4)on2)c1,6%,17%,.,1%[46.1 µM],.,-5.9%,.,15%[46.1 µM]
CCOCCCn1c(=S)[nH]c2cc(C(=O)NC3CCCCC3C)ccc2c1=O (centres undefined),-7%,.,8%,.,4%,.,9%,.
